Ecoli rRNA inh: inhibits bacterial ribosomal RNA function over humanized ribosomes | E. coli WT GFP vs humanized-ribosome RFP mutants, fluorescence, 24 h; active compounds read low; DMSO median 0, no signal -100 | GFP signal change (wild-type ribosome), % (no concentration beside the values) | 1.6% of 350,000 active;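 active = significant combined selectivity score with lowered wild-type GFP, culture density cut under 30%, mutant RFP and density less affected; inactive = any of these conditions unmet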; also: one replicate is shown; some compounds called inactive have numbers as strong as hits
MLL AF4-AF9 inh: blocks AF4 peptide binding to human AF9; AlphaScreen, biotin-AF4 peptide binding to FLAG-AF9; inhibition, % at 10 µM; 0.47% of 350,000 active;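 active = every replicate reaching a set inhibition limit, whatever the replicate mean, cut at about 25% in these data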;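 also: 0% = plate neutral control median and 100% = total signal loss; the record names both 10 and 1 µM as test concentration; the first replicate is given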
Target sequence (P42568 whole entry, looked up): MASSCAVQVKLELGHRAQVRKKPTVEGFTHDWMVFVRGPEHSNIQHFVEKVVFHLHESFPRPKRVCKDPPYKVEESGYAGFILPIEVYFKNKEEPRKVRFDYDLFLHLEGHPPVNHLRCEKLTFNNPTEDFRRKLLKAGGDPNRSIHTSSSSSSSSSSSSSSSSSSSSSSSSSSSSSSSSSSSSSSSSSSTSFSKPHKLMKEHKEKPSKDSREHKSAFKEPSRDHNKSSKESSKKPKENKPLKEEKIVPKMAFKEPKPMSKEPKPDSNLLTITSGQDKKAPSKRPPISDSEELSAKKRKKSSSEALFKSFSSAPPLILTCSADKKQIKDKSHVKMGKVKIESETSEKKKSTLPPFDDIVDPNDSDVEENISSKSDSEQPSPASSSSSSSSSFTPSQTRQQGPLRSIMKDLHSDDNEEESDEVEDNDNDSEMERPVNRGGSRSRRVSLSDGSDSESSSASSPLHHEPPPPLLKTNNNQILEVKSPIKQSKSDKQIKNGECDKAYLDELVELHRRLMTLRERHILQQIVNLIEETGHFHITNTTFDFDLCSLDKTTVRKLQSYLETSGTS
FGF22 binding: shifts melting point of recombinant human FGF22; recombinant FGF22 thermal shift, SYPRO orange fluorescence; percent of sucrose octasulfate shift, DMSO zero; calls only at 9.99 µM; 1.5% of 340,000 active; AID 651658;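 active = melting point raised past a set limit in the mean and every replicate; three in four hits are not shown here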
Target sequence (Q9HCT0 whole entry, looked up): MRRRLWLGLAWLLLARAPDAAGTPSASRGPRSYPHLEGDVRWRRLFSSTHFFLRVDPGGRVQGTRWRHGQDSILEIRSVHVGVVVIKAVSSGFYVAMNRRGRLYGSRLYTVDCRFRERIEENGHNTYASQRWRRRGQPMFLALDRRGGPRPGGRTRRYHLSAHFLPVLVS
Ecoli rRNA inh OD600: further read-out of Ecoli rRNA inh, marked with its call; OD600 change, %; measured here: OD600 growth;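 optical density of the mix in the first replicate; 0 = DMSO median and -100 = no signal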
Ecoli rRNA inh RFP: second read-out of Ecoli rRNA inh, no call of its own (marks repeat the call); RFP signal change, %; measured here: RFP humanized mutant strains;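 first replicate; 0 = DMSO median and -100 = no signal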
Numbers without * were called inactive; i = inactive; & = joins results of further samples. An excerpt; rates above refer to the full screens.

SMILES | Ecoli rRNA inh | Ecoli rRNA inh OD600 | Ecoli rRNA inh RFP | MLL AF4-AF9 inh | FGF22 binding
O=C(C[C@@H]1C[C@@H]2c3cc(NS(=O)(=O)c4ccc(F)cc4)ccc3O[C@@H]2[C@H](CO)O1)NCCc1ccccc1 | -4.1 | -3.2 | -0.2 | -0.2 | i
O=C(C[C@@H]1CC[C@@H](NC(=O)Nc2cc(F)ccc2F)[C@H](CO)O1)NCc1ccccn1 | 6.6 | 3.7 | 0.0 | 0.2 | i
C[C@@H]1CN([C@@H](C)CO)C(=O)Cc2cc(NC(=O)Nc3ccc(F)cc3)ccc2O[C@@H]1CN(C)Cc1ccc(-c2ccccc2)cc1 | 2.8 | 7.0 | 0.6 | -10.6 | i
C[C@@H]1CN([C@H](C)CO)C(=O)c2cc(NC(=O)NC3CCCCC3)ccc2O[C@@H](C)CCCCO[C@@H]1CN(C)Cc1ccc(C(F)(F)F)cc1 | -2.3 | 0.1 | 2.0 | -2.4 | i
COc1ccc(NC(=O)N(C)C[C@@H]2Oc3c(NC(=O)C4CCCCC4)cccc3C(=O)N([C@H](C)CO)C[C@@H]2C)cc1 | -1.1 | -1.8 | -4.0 | -2.0 | i
Cc1ccc(S(=O)(=O)Nc2ccc3c(c2)C(=O)N([C@H](C)CO)C[C@H](C)[C@@H](CN(C)S(=O)(=O)c2ccc(F)cc2)OCCCC[C@@H](C)O3)cc1 | -0.3 | -2.3 | -0.3 | 2.7 | i
CN(C)Cc1cn(CC[C@@H]2CC[C@@H](N)[C@H](CO)O2)nn1 | 1.8 | 1.6 | 0.3 | 0.9 | i
C[C@@H]1CN([C@@H](C)CO)S(=O)(=O)c2ccc(C#CC3CC3)cc2O[C@H]1CN(C)Cc1ccccn1 | -34.2 | -64.3 | 5.8 | 5.7 | i
COc1ccc(-c2ccc([C@H]3[C@@H](C#N)N(C(=O)c4cccc(F)c4)[C@@H]3CO)cc2)cc1 | -13.9 | -52.8 | 10.2 | 0.5 | i
O=C(NC[C@H]1[C@@H](c2ccccc2)[C@@H](CO)N1C(=O)C1CC1)NC1CCCC1 | -2.2 | 6.1 | 0.6 | -16.5 | i
C[C@H](CO)N1C[C@H](C)[C@@H](CN(C)Cc2ccc3c(c2)OCO3)Oc2c(NS(=O)(=O)c3ccc(F)cc3)cccc2C1=O | -5.4 | 1.7 | 1.9 | 1.0 | i
O=C(NCCc1ccccc1)[C@H]1[C@H](CO)[C@H]2Cn3c(cccc3=O)[C@H]2N1Cc1ccncc1 | 2.8 | 14.1 | -0.7 | -2.9 | i
CO[C@@H]1CN(C)C(=O)c2cc(NC(=O)NC(C)C)ccc2OC[C@H](C)N(Cc2ccccn2)C[C@@H]1C | 1.0 | -2.6 | -0.8 | 2.3 | i
CCCNC(=O)c1cc2c(c(-c3cccc(-c4cccc(OC)c4)c3)n1)[C@@H](CCO)N([S@](=O)C(C)(C)C)C2 | -5.6 | -2.0 | 31.2 | 1.4 | i
COc1ccc(CN2C(=O)C(CC(=O)NCCCCc3ccccc3)CC(C(=O)N(C(C)C)C(C)C)=C2C)cc1 (centres undefined) | -2.6 | -21.6 | 0.8 | -2.7 | i
C[C@H]1CCCCO[C@H](CN(C)Cc2ccccc2)[C@@H](C)CN([C@@H](C)CO)C(=O)c2cc(NS(=O)(=O)c3ccccc3)ccc2O1 | -2.0 | -7.9 | 1.3 | -0.3 | i
N#C[C@H]1[C@H](c2ccccc2)[C@H](CO)N1S(=O)(=O)Cc1ccccc1 | 0.5 | 16.2 | -3.3 | -1.2 | i
C[C@@H]1CN([C@@H](C)CO)C(=O)c2c(c3ccccc3n2C)-c2ccccc2CO[C@H]1CN(C)C(=O)c1ccncc1 | -1.7 | 1.0 | -0.9 | 0.8 | i
C[C@H](CO)N1C[C@H](C)[C@H](CN(C)C(=O)c2ccccn2)Oc2ncc(C#Cc3ccccn3)cc2C1=O | 8.4 | 13.8 | -1.9 | -8.3 | i
CC(=O)N1[C@@H](CO)[C@@H](c2ccccc2)[C@@H]1CN(CC1CCC1)C(=O)CN(C)C | -1.2 | -0.4 | -0.2 | -1.6 | i
COc1ccc(NC(=S)Nc2ccc(S(=O)(=O)N3CCCCC3)cc2)cc1 | -8.0 | -3.2 | -4.6 | 3.0 | i
O=C(Nc1ccc(F)cc1)N1C[C@@H]2[C@H](c3ccccc31)[C@H](CO)N2Cc1ccccc1 | -8.6 | -11.6 | -0.9 | 1.0 | i
COc1ccc(S(=O)(=O)N(C)C[C@@H]2Oc3ccc(NC(=O)Nc4ccc5c(c4)OCO5)cc3CC(=O)N([C@H](C)CO)C[C@@H]2C)cc1 | 2.6 | 1.1 | 2.7 | 5.2 | i
N#C[C@H]1[C@H](c2ccc(-c3ccccc3)cc2)[C@@H](CO)N1C(=O)Cc1ccccc1 | -17.6 | -46.3 | 24.8 | 0.5 | i
COCC(=O)N1[C@H](CO)[C@@H]2c3ccccc3N(C(=O)Nc3ccccc3Cl)C[C@@H]21 | 3.7 | 1.9 | 2.0 | -0.8 | i
Next part.
SMILES | Ecoli rRNA inh | Ecoli rRNA inh OD600 | Ecoli rRNA inh RFP | MLL AF4-AF9 inh | FGF22 binding
COc1cccc(-c2ccc3c(c2)O[C@@H](CN(C)Cc2cncnc2)[C@@H](C)CN([C@@H](C)CO)S3(=O)=O)c1 | -6.4 | -9.1 | -0.4 | 2.2 | i
COc1ccc(S(=O)(=O)N(C)C[C@@H]2Oc3cc(-c4ccccc4OC)ccc3S(=O)(=O)N([C@@H](C)CO)C[C@H]2C)cc1 | -2.2 | 0.8 | -0.3 | 2.1 | i
CC(C)C#Cc1ccc2c(c1)O[C@@H](CN(C)S(=O)(=O)c1cn(C)cn1)[C@@H](C)CN([C@@H](C)CO)S2(=O)=O | -7.3 | -12.7 | -1.4 | 2.3 | i
O=S1(=O)C[C@H](N2CCN(CC3CC3)CC2)[C@@H](COCc2ccccc2)N1 | 27.6 | 10.7 | 0.4 | 0.1 | i
COc1ccc(S(=O)(=O)N[C@H]2CC[C@H](CCn3cc(-c4ccccc4F)nn3)O[C@H]2CO)cc1 | -2.3 | -3.5 | 0.5 | 1.0 | i
COC(=O)C[C@H]1CC[C@@H]2[C@H](COc3ccc(NC(=O)Nc4cccc(C#N)c4)cc3C(=O)N2C)O1 | -1.1 | 10.1 | -3.7 | -0.4 | i
CN1CCN(C(=O)C[C@@H]2CC[C@H]3[C@@H](COC[C@H](O)CN3C(=O)Cc3ccccc3)O2)CC1 | 3.0 | -3.6 | -3.3 | 3.0 | i
CCC(=O)N1CC2(CN(C(=O)Cc3ccccc3)C2)c2c(n(C)c3cc(OC)ccc23)[C@H]1CO | -4.4 | -4.9 | -2.0 | 1.5 | i
N#C[C@@H]1[C@H](c2ccc(C#CC3(O)CCCC3)cc2)[C@H](CO)N1C(=O)C1CCC1 | 1.5 | -1.3 | -2.2 | -0.1 | i
C[C@H](CO)N1C[C@H](C)[C@@H](CN(C)C)Oc2cc(-c3cncnc3)ccc2S1(=O)=O | 5.0 | -4.9 | -0.4 | -3.4 | i
Cc1ccc(S(=O)(=O)Nc2ccc3c(c2)C(=O)N([C@H](C)CO)C[C@H](C)[C@@H](CN(C)C(=O)NC(C)C)OCCCC[C@H](C)O3)cc1 | -2.0 | 2.0 | 2.8 | -13.2 | i
C[C@H](CO)N1C[C@H](C)[C@H](CN(C)S(=O)(=O)c2ccc(F)cc2)Oc2ncccc2C1=O | 7.8 | 15.9 | -0.7 | -6.6 | i
CNC(=O)C[C@@H]1CC[C@H]2[C@@H](COc3ccc(NC(=O)NC4CCCC4)cc3C(=O)N2C)O1 | 2.2 | -3.4 | 0.5 | -0.9 | i
COc1ccccc1-c1ccc2n(c1=O)C[C@H]1[C@H](CO)[C@@H](C(=O)NC3CCC3)N(C(C)=O)[C@@H]21 | 0.7 | 4.9 | -2.2 | -1.6 | i
O=C1NC[C@@H](CCCCN2C[C@H](Cc3ccc(O)cc3)N(CCc3ccccc3)C(=O)C2=O)N(CCc2ccc(O)cc2)C1=O | 10.8 | 8.0 | 5.9 | 19.8 | i
CCCCCNC(=O)C(c1ccncc1)n1c(=O)c(-c2ccco2)nc2ccccc21 (centres undefined) | 9.8 | 6.2 | 1.5 | 2.2 | i
Cc1ccc(S(=O)(=O)N(C)C[C@@H]2Oc3ncc(-c4cc5ccccc5o4)cc3C(=O)N([C@H](C)CO)C[C@@H]2C)cc1 | -1.7 | 2.8 | 1.0 | 2.6 | i
O=C(C[C@H]1CC[C@@H]2[C@H](COC[C@@H](O)CN2S(=O)(=O)c2cccc(F)c2)O1)Nc1ccc(-c2ccccc2)cc1 | -4.5 | -61.3 | 22.8 | 0.8 | i
CC(C)C1C(=O)N(Cc2cn(Cc3ccco3)nn2)CCS(=O)(=O)N1Cc1ccc(-c2ccc(Cl)cc2)cc1 (centres undefined) | 5.6 | 0.9 | 3.3 | -0.5 | i
COc1ccc2c3c(n(C)c2c1)[C@H](CO)N(Cc1ccc2c(c1)OCO2)CC31CCN(C)CC1 | 1.8 | 4.1 | 2.4 | 5.1 | i
C/C=C/c1ccc([C@@H]2[C@H](CO)N(C(C)=O)[C@H]2CN(CC)C(=O)CN(C)C)cc1 | 4.2 | 8.3 | -1.0 | -0.9 | i
CC(C)NC(=O)Nc1ccc2c(c1)C(=O)N([C@@H](C)CO)C[C@@H](C)[C@H](CN(C)Cc1ccc(Cl)c(Cl)c1)O2 | -11.4 | -58.1 | 26.0 | 1.6 | i
CCCN(C)C[C@@H]1OCc2cnnn2CCCC(=O)N([C@H](C)CO)C[C@H]1C | 10.2 | 6.3 | 0.8 | 0.9&-12.5 | i
CN(C)C(=O)c1cccc(-c2ccc3c(c2)[C@@H]2[C@@H](CCN2C(=O)c2ccccc2F)[C@H](CO)N3)c1 | -3.8 | -1.6 | -2.9 | 4.9 | i
Cc1noc(C)c1NC(=O)N(C)C[C@H]1Oc2ccc(NS(=O)(=O)c3ccc(F)cc3)cc2C(=O)N([C@@H](C)CO)C[C@@H]1C | 2.3 | 2.4 | -2.5 | 0.0 | i
Next part:
SMILES | Ecoli rRNA inh | Ecoli rRNA inh OD600 | Ecoli rRNA inh RFP | MLL AF4-AF9 inh | FGF22 binding
COCC(=O)N1[C@H](CO)[C@@H](c2ccccc2-c2ccccc2)[C@@H]1C#N | -0.7 | 3.1 | 1.5 | -1.6 | i
O=C(/C=C/C(Cl)(Cl)Cl)Nc1ccc(Cl)cc1 | -55.2 | -81.8 | -17.1 | 4.8 | i
Cc1ccc(-c2cc(C(=O)NCC3(N(C)C)CCCCC3)c3ccccc3n2)o1 | 4.4 | 9.3 | -2.2 | 10.4 | i
O=C(C[C@H]1C=C[C@H](NC(=O)C2CCOCC2)[C@H](CO)O1)NCC1CC1 | 1.0 | 2.7 | -1.7 | -0.7 | i
COC(=O)[C@@]1(C(C)C)N=C(c2cc(OC)c(OC)c(OC)c2)[C@]2(O1)C(=O)N(C)c1ccc(Br)cc12 | -5.4 | -3.2 | 3.7 | -1.0 | i
O=C(C1CCCCC1)N1CC[C@@H]2[C@@H](CO)Nc3ccc(Br)cc3[C@@H]21 | -23.3 | -48.5 | -1.0 | -0.9 | i
CN(CCO)c1ccc2c(c1)OC[C@@H](Cc1ccccc1)NS2(=O)=O | -11.9 | -8.6 | 0.1 | -3.6 | i
O=C(N[C@H]1CC[C@@H](CCn2cc(Cc3ccccc3)nn2)O[C@H]1CO)c1cnccn1 | 2.7 | 6.2 | -1.2 | -2.3 | i
C[C@@H]1CN([C@H](C)CO)C(=O)c2cc(NS(=O)(=O)c3cn(C)cn3)ccc2O[C@@H]1CN(C)C(=O)Nc1cccc2ccccc12 | 2.7 | 4.4 | 2.6 | -0.7 | i
CC(C)NC(=O)C1(C)CSCC(=O)N1CCCn1ccnc1 (centres undefined) | 14.4 | 15.1 | 0.2 | -0.9 | i
CO[C@H]1CN(C)C(=O)c2cc(NS(=O)(=O)CC(F)(F)F)ccc2OC[C@@H](C)N(C(=O)c2ccc3c(c2)OCO3)C[C@@H]1C | 1.8 | 5.3 | -0.4 | -0.8 | i
CCc1nc2ccc(C(=O)NCCCN(C)C)cn2c1N(CC)CCOC | -1.4 | -4.2 | -1.1 | -3.6 | i
C[C@@H]1CN([C@@H](C)CO)C(=O)c2cc(C#CC(C)(C)O)cnc2O[C@H]1CN(C)C(=O)CN(C)C | 6.2 | -1.8 | -3.6 | 0.6 | i

Single records (already shown). Values in the order: Ecoli rRNA inh | Ecoli rRNA inh OD600 | Ecoli rRNA inh RFP | MLL AF4-AF9 inh | FGF22 binding
O=C(N[C@H]1CC[C@@H](CCn2cc(Cc3ccccc3)nn2)O[C@H]1CO)c1cnccn1 is listed as 2.7 | 6.2 | -1.2 | -2.3 | i
Cc1ccc(-c2cc(C(=O)NCC3(N(C)C)CCCCC3)c3ccccc3n2)o1 is listed as 4.4 | 9.3 | -2.2 | 10.4 | i
CO[C@H]1CN(C)C(=O)c2cc(NS(=O)(=O)CC(F)(F)F)ccc2OC[C@@H](C)N(C(=O)c2ccc3c(c2)OCO3)C[C@@H]1C is listed as 1.8 | 5.3 | -0.4 | -0.8 | i
CN(CCO)c1ccc2c(c1)OC[C@@H](Cc1ccccc1)NS2(=O)=O is listed as -11.9 | -8.6 | 0.1 | -3.6 | i

Screens from PubChem BioAssay.
